# NS1 function inh: blocks influenza NS1 protein function. S. cerevisiae slowed by influenza A NS1, growth recovery by OD600. 0.4% of 270,000 active. Potency, µM (series often up to 46.1 µM), for inactives: at the top dose activity, positive = more growth. AID 2326; active means well fitted rising curve with a large enough effect; inconclusive means small, poorly fitted or top-dose-only effect; inactive means no such curve, though single readings can be large or run the other way; further: nearly all actives have a fitted effect of over 50% in size
#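 In this qHTS, NS1 from influenza A is expressed in budding yeast, where it slows growth. Cells are switched from glucose to 2% galactose medium (pH 6.0, -URA), treated with compound, and growth recovery is read at OD600.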
# Cruzain noTriton: inhibitors of Trypanosoma cruzi cruzain without detergent | P25779 | 2.3% of 200,000 active | AID 1476 | purified cruzain, Z-FR-AMC fluorescence, no detergent | Potency, µM, for inactives: max response, negative = inhibition, hits mostly inhibitors;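 further: plate controls were enzyme without inhibitor for no effect and buffer without enzyme for full effect; nearly all actives have a fitted effect of over 40% in size; top concentration of the series not given in the record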
# Target sequence (P25779 123-467 limits assumed): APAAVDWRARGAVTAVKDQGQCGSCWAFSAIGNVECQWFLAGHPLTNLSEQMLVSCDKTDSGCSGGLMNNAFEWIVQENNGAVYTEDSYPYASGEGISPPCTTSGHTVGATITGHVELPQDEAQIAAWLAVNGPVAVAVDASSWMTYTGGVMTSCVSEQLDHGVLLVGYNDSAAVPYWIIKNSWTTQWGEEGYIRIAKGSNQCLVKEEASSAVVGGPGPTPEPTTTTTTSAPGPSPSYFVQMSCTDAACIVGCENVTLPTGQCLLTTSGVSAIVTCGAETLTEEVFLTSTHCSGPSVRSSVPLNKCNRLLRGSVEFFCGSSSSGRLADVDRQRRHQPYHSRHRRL
#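 Detergent-free condition (0.00005% Triton X-100) in acetate buffer pH 5.5 with DTT. 1.5 nM enzyme and compound were pre-mixed 15 min, then 2 uM Z-FR-AMC substrate added; reaction progress from fluorescence change between first and third reads (60 s).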
# SARS PLpro yeast: SARS-CoV PLP inhibition in yeast; 0.19% of 330,000 active; S. cerevisiae expressing SARS-CoV PLpro, growth rescue; control for the full effect not named in the record; Potency, µM (highest dose often 32.9 µM), inactives show top-dose activity, positive = growth rescue; active means well fitted rising curve with a large enough effect; inconclusive means small, poorly fitted or top-dose-only effect; inactive means no such curve, though single readings can be large or run the other way; further: 0% is about no effect; nearly all actives have a fitted effect of over 55% in size; growth read by luminescence after 48 h
# Marburg entry inh: blocks Marburg virus binding to or entry into cells. Marburg virus pseudotyped entry inhibition, cell reporter; control for the full effect not named in the record; about a third of the inactives were read at about 46 µM. AID 540276. 1.8% of 300,000 active. Potency, µM (series often up to 37.8 µM), for inactives: at the highest dose activity change, negative = inhibition, hits mostly inhibitors; active = well fitted inhibition curve with a large enough effect; inconclusive = small, poorly fitted or top-dose-only effect, or effect the other way; inactive = flat fitted curve, though single readings scatter; tested in HEK293 cells; about a fifth of its hits are not listed in these tables; further: on the % scale 0 is the no-effect control and ±100 the full control effect; luciferase read-out
# Cruzain inh Det: inhibitors of Trypanosoma cruzi cruzain with detergent. 0.43% of 200,000 active. purified cruzain, Z-FR-AMC fluorescence, 0.01% Triton. Potency, µM, for inactives: max response, negative = inhibition, usual class: inhibitors;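 further: plate controls were neutral wells for no effect and buffer without enzyme for full effect; nearly all actives have a fitted effect of over 40% in size; top concentration of the series not given in the record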
#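 Compounds were screened in titration against cruzain (1.5 nM) with 0.01% Triton X-100 to counter colloidal aggregation. Activity was the AMC fluorescence increase over 60 s after adding 2 uM Z-FR-AMC at pH 5.5.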
# RE007 growth inh: less growth of the S. pombe RE007 Vpr strain; 0.21% of 360,000 active; Potency, µM (top dose mostly 92.2 µM), for inactives: at the top dose activity change, negative = less growth; S. pombe RE007 Vpr strain, BacTiter-Glo ATP luminescence, 24 h; control for the full effect not named in the record; active = well fitted falling curve with a large enough effect; inconclusive = small, poorly fitted or top-dose-only effect; inactive = no such curve, though single readings can be large or run the other way;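 further: on the % scale 0 is the no-effect control and ±100 the full control effect; nearly all actives have a fitted effect of over 50% in size; the assay follows cell death caused by Vpr and the record does not say whether a fall means rescue or toxicity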
#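 Fission yeast RE007 carrying one integrated HIV-1 vpr copy, seeded at OD 0.01 in PMG+AL medium with 23 nL pinned compound. Grown 24 h at 30 degrees; viability read by BacTiter-Glo luminescence after 5 min.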
# StopGo reporter: FMDV 2A StopGo reporter, luciferase signal. 1.2% of 410,000 active. Potency, µM (series often up to 57.9 µM), for inactives: at the highest dose signal change, negative = less light. human cells with a luciferase reporter of 2A StopGo recoding; control for the full effect not named in the record; active = well fitted falling curve with a large enough effect; inconclusive = small, poorly fitted or top-dose-only effect; inactive = no such curve, though single readings can be large or run the other way; tested in HEK293T cells; further: on the % scale 0 is the no-effect control and ±100 the full control effect; nearly all actives have a fitted effect of over 45% in size; luciferase light after 4 h
# Lassa entry inh: inhibitors of Lassa virus binding or cell entry; Lassa virus pseudotype entry inhibition, cell reporter; control for the full effect not named in the record; Potency, µM (doses to about 37.9 µM), for inactives: top-dose activity change, negative = inhibition, hits mostly inhibitors; 1.2% of 300,000 active; AID 540256; active means well fitted inhibition curve with a large enough effect; inconclusive means small, poorly fitted or top-dose-only effect, or effect the other way; inactive means flat fitted curve, though single readings scatter; tested in HEK293 cells; further: on the % scale 0 is the no-effect control and ±100 the full control effect; nearly all actives have a fitted effect of over 50% in size; luciferase read-out
# The depositor's hits bear a star; ? = inconclusive; / = not tested or not shown; & = joins results of further samples; [ ] = remark or other dose. Unless noted, the call rests on the fitted dose curve; in most records, active means well fitted curve in the direction sought with a large enough effect; inconclusive means small, poorly fitted or top-dose-only effect, or another doubt; inactive means no such curve, though single readings can be large; an effect the other way counts as inactive or inconclusive. Potency means the concentration at half of the fitted maximal effect. Random draw from the library (roughly 4.7% active in at least one column).
smiles,Cruzain noTriton,StopGo reporter,Lassa entry inh,Cruzain inh Det,SARS PLpro yeast,NS1 function inh,Marburg entry inh,RE007 growth inh
COC(=O)c1ccc(NC(=O)CN2CCCN(Cc3ccc(Cl)cc3)S2(=O)=O)cc1,16%,-21%,0%[46.1 µM],-7.3%,/,/,/,/
CSCCC(NC(=O)c1ccco1)C(=O)Nc1ccc(C)c(S(=O)(=O)N2CCOCC2)c1 (stereo not given),/,-8%,1%[46.1 µM],/,-5%,/,-28%,14%
COc1ccccc1CC(=O)Nc1ccon1,/,-7%,/,/,0%,14%,/,0%
COc1ccc(CN(CC2CCCO2)C(=O)c2cc3sccc3n2C)c(OC)c1 (stereo not given),/,-13%,?,/,1%,-4%,?,8%
COc1ccc(Cn2ccn(Cc3cccc(C)c3)c(=O)c2=O)cc1,9%,-10%,1%[46.1 µM],-1.9%,/,/,/,/
Cc1cccc(OCCN2C(=O)C(=O)c3cc(C)ccc32)c1,/,7%,?,/,-3%,-7%,?,-9%
COc1cccc(C2/C(=C(/O)c3ccc4c(c3)CC(C)O4)C(=O)C(=O)N2CCCn2ccnc2)c1 (stereo not given),/,-5%,8%[46.1 µM],/,11%,-12%,6%[46.1 µM],12%
CC(Sc1cccc[n+]1[O-])C(=O)Nc1cccc([N+](=O)[O-])c1 (stereo not given),/,37%[activator],/,/,1%,/,3%[46.1 µM],4%
N#Cc1cccc(NC(=O)CSc2n[nH]c(=O)[nH]c2=O)c1,/,-18%,/,/,1%,2%,/,25%
CC(C)(C)n1nc2c(c1NC(=O)c1cccc(Cl)c1)CS(=O)(=O)C2,/,-18%,-1%[46.1 µM],/,6%,18%,4%[46.1 µM],8%
COc1cc(CCN2C(=O)c3cccc4cccc(c34)C2=O)c(S(=O)(=O)N2CCCCCC2)cc1OC,?,17%,29%,-5.5%,3%,?,-18%,13%
CC1S/C(=N/N=C/c2cccs2)NC1=O (stereo not given),-16%,35%[activator],10%,-5.1%,-1%,9%,10%,-16%
CCN(C(=O)CSc1nnc(NCc2ccccc2)s1)C1CCS(=O)(=O)C1 (stereo not given),/,3%,5%,/,0%,/,12%,-14%
CCCc1cc(=O)[nH]c(-n2[nH]c3c(c2=O)CCCC3)n1,-1%,-25%,-27%,6.4%,-17%,-48%,?,-1%
CCOc1ncccc1C(=O)OCC(=O)Nc1cc(S(=O)(=O)N2CCOCC2)ccc1Cl,10%,-21%,-13%[46.1 µM],-0.2%,-1%,-9%,1%[46.1 µM],-10%
CCCC(=O)Nc1sc2c(c1C#N)CC(C)(C)NC2(C)C,0%,-17%,-1%,-1.2%,11%,-4%,0%,-4%
COc1cccc(C(=O)COc2cccc(NC(=O)c3cccc([N+](=O)[O-])c3)c2)c1,?,28µM*,?,-1.4%,-4%,-8%,?,-2%
Cc1nn(C(C)(C)C)c(OC(=O)c2ccc(Br)o2)c1Sc1ccccc1,-3%,-8%,-21%,1.4%,-18%,-4%,?,-5%
COC(=O)Cn1c(=O)c2cccn2c2ccc(F)cc21,6%,-20%,6%[46.1 µM],-3.9%,/,/,-1%[46.1 µM],/
CCN(CC)S(=O)(=O)c1cccc(C(=O)N/N=C/c2c(C)nn(-c3ccccc3)c2Cl)c1,16%,-13%,5%,-23%,-1%,9%,-3%,7%
COc1ccc2[nH]c(=O)c(CN(Cc3cccnc3)Cc3nnnn3CC3CCCO3)cc2c1 (stereo not given),/,-14%,/,/,-3%,1%,/,-15%
CCC(C)NC(=O)C1c2ccccc2C(=O)N1Cc1ccc(OC)cc1OC (stereo not given),1%,21%,-12%,3.7%,1%,2%,8%,-13%
NNC(=O)c1ccc(COCC(F)(F)C(F)F)cc1,/,8%,-14%[46.1 µM],/,0%,1%,4%[46.1 µM],8%
CCCCc1cc(=O)oc2cc(OCC(=O)N3C[C@H]4C[C@@H](C3)c3cccc(=O)n3C4)ccc12,/,2%,/,/,-16%,5%,/,-15%
COc1nc(Nc2ccc(C(C)=O)cc2)nc(OC)n1,-5%,/,2%,4.5%,-3%,12%,8%,-4%
Cc1ccc(S(=O)(=O)Nc2ccccc2N2CCOCC2)cc1,/,6%,-22%[46.1 µM],/,2%,-7%,?,-5%
CCn1c2c(c(=O)n3ncc(C(=O)Nc4ccc(OC(F)(F)F)cc4)c13)CN(Cc1ccc(OC)cc1)CC2,?,-23%,8%[46.1 µM],-8.0%,/,/,/,/
CN1C(=O)c2ccccc2N(C)C1c1ccccc1Cl (stereo not given),/,-1%,-2%,/,0%,0%,-6%[46.1 µM],-5%
Cc1ccc(Cn2nnc(C(=O)Nc3ccc(F)c(F)c3)c2N)cc1,2%,-4%,3%[46.1 µM],-0.3%,/,/,?,/
CC(C)(C)C(=O)NC1CCN(CC(=O)Nc2ccc3c(c2)OCO3)CC1,/,9%,-28%[46.1 µM],/,-10%,-15%,-12%[46.1 µM],4%
O=C(OC1CCOC1=O)c1ccc(-c2nc3ccccc3s2)s1 (stereo not given),8%,1%,?,-9.4%,-5%,4%,?,-14%
COC(=O)c1ccc(Sc2nnnn2-c2ccccc2)c([N+](=O)[O-])c1,2%,20µM*,?,-2.2%,-14%,-7%,?,0%
O=C1NC(=O)C(=Cc2cn(CCOc3ccc4c(c3)OCO4)c3ccccc23)C(=O)N1,?,-22%,-29%,0.3%,7%,24%,?,-4%
COc1ccc(/C=N/NC(=O)c2nc(-c3ccccc3)n(-c3ccccc3)n2)c(O)c1,-27%,-24%,?,-3.7%,2.8µM*,7%,?,-2%
CCOC(=O)NC(=S)Nc1ccc(C(C)(C)C)cc1,/,17%,13%,/,19%,-1%,0%&0%[46.1 µM],-25%
CCCCNC(=O)c1ccc(C)c(NC(=O)C2=C(C)OCCS2)c1,/,-19%,/,/,0%,-3%,/,-1%
COCCCNC(=O)Cn1cc2c(n1)CCCCC2,10%,-22%,/,5.1%,9%,21%,/,-3%
Oc1c(Cl)cc(Cl)cc1C1Nc2ccccc2-n2cccc21 (stereo not given),/,-2%,12%,/,0%,1%,5%[46.1 µM],2%
COc1cc(CNCCN2CCOCC2)ccc1OCc1cccc(Cl)c1,-2%,-11%,?,-0.6%,3%,-5%,?,6%
CCC(=O)N1CCc2cc(S(=O)(=O)N3CCN(c4ccccn4)CC3)ccc21,15%,-19%,-1%,-1.8%,0%,-25%,?,0%
S=c1nc(-c2ccccc2)n(Cc2cccnc2)c2c1CCCC2,/,-6%,13%[46.1 µM],/,0%,4%,14%[46.1 µM],-22%
CCOC(=O)c1c(-c2ccc(OC)cc2)oc2ccc(OCc3ccc(C(=O)OC)cc3)cc12,?,-24%,-1%[46.1 µM],-3.9%,/,/,1%[46.1 µM],/
O=C(COC(=O)c1cc(S(=O)(=O)N2CCOCC2)ccc1O)NCc1ccc2c(c1)OCO2,/,5%,-1%,/,-2%,/,1%,-1%
Cc1[nH]c2c(Cl)cccc2c(=O)c1CN1CCCCCC1,/,-11%,/,/,2%,5%,/,-3%
COCCCC1CCN(C(=O)C2CCC(=O)N(C3CCCC3)C2)CC1 (stereo not given),/,-21%,18%,/,0%,0%,-7%,7%
Brc1ccc(-c2cnc3n2CCCC3)cc1,1%,-26%,20%,-3.3%,0%,0%,-16%&-16%[46.1 µM],10%
CCc1cccc(CC)c1NC(=O)CN1CC(C)SC1=NC1CCCCC1 (stereo not given),-10%,-13%,?,2.6%,-6%,18%,?,-1%
CS(=O)(=O)c1nc(S(=O)(=O)c2ccc(Cl)cc2)c(NCCN2CCOCC2)s1,/,11%,/,/,-2%,0%,/,17%
O=C(NC1CCS(=O)(=O)C1)c1sc2ccccc2c1Cl (stereo not given),/,32%[activator],?,/,1%,/,-5%[46.1 µM],-2%
CN(C)C(=S)NC(=O)c1cccc(Cl)c1,/,5%,6%,/,-2%,/,-15%,5%
COc1ccc(C(CC(=O)N2CCN(C)CC2)NC(=O)C(F)(F)F)cc1 (stereo not given),/,3%,/,/,-1%,7%,/,-1%
COc1ccc(N2CCN(C(=O)CCN3C(=O)c4ccccc4S3(=O)=O)CC2)cc1,-11%,-27%,-15%,-4.3%,0%,3%,0%,-11%
CCc1ccc(OC(C)C(=O)N2CCC(c3nc4ccccc4o3)CC2)cc1 (stereo not given),?,0%,-6%[46.1 µM],-11%,/,/,?,/
O=C(Nc1ccccc1)c1ccc(=O)[nH]n1,/,2%,4%[46.1 µM],/,-1%,-3%,?,1%
Cc1cc(C)c2c(c1)N[C@H](c1cccs1)[C@@H]1CCO[C@H]21,/,-22%,-4%[46.1 µM],/,-1%,2%,-14%[46.1 µM],-13%
Cc1ccc(NC(=O)C(CC(=O)O)C2CCCO2)c(C)c1 (stereo not given),/,-8%,27%,/,1%,1%,-3%[46.1 µM],6%
CSCCC(NC(=O)c1ccco1)C(=O)N1CC=C(c2ccccc2)CC1 (stereo not given),/,-18%,-22%,/,-1%,-4%,-27%,1%
COc1ccc(C(=C(CC(=O)O)C(=O)OC(C)(C)C)c2cc(OC)c(OC)c(OC)c2)cc1OC,/,-12%,5%,/,/,/,?,13%
COc1cccc2c1c(NC(=O)Nc1ccc(F)cc1F)nn2C,/,-1%,2%[46.1 µM],/,-2%,3%,?,1%
CCOC(=O)C1CCCN(S(=O)(=O)c2cc(Br)cc3c2N(C(=O)C2CC2)CC3)C1 (stereo not given),?,8%,-1%,1.1%,-18%,-100%,5%&5%,1%

# Additional structures
smiles,Cruzain noTriton,StopGo reporter,Lassa entry inh,Cruzain inh Det,SARS PLpro yeast,NS1 function inh,Marburg entry inh,RE007 growth inh
COc1ccc(C(=O)N/C(=C/c2cccs2)C(=O)NN)cc1OC,/,5%,13%,/,1%,15%,-10%[14.2 µM],12%
CCOc1ccc(NC(=O)CCC(=O)N2CCSc3ccccc32)cc1,-15%,-12%&-21%,-18%[46.1 µM],-3.5%,?,-2%,/,-7%
CC(C)C1Nc2ccc(C(=O)NCc3ccco3)cc2NC1=O (stereo not given),/,12%,-10%,/,-1%,2%,-6%[46.1 µM],4%
CCCCNC(=O)CCCn1c(=O)c2ccccc2n(CC(=O)Nc2ccccc2OCC)c1=O,-9%,1%,-11%[46.1 µM],0.4%,/,/,2%[46.1 µM],/
O=C(N1CCOCC1)N1CCN(S(=O)(=O)c2ccc(Cl)cc2)C1,/,5%,0%[46.1 µM],/,3%,3%,?,3%
